Compound activity: PubChem, National Center for Advancing Translational Sciences (NCATS)
ClpP mod: qHTS Assay for Activators of ClpP | ATP-dependent Clp protease proteolytic subunit (Bacillus subtilis (strain 168)), P80244 | purified B. subtilis ClpP, FRET peptide cleavage, 20 min | Potency, µM (highest dose often 57.5 µM), for inactives: at the highest dose activity change, negative = active | hit rate 1.9% among 340,000 | AID 651965, 2013; active = well fitted falling curve with a large enough effect; inconclusive = small, poorly fitted or top-dose-only effect; inactive = no such curve, though single readings can be large or run the other way; further: potency means the concentration at half of the fitted maximal effect; the source files actives as falling curves though it sought activators and does not explain the sign; nearly all actives have a fitted effect of over 65% in size; many hits overshoot -100%
Target sequence (P80244 whole entry, looked up): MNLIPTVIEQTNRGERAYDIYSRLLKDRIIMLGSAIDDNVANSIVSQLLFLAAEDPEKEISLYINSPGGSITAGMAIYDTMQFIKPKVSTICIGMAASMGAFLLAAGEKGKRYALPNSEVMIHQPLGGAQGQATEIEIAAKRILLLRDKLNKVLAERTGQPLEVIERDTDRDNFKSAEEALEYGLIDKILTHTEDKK
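Purified B. subtilis ClpP, 10 microg/mL final in Tris/HCl pH8 with KCl, BSA, glycerol and Tween-20, cleaved an Abz/nitrotyrosine-quenched decapeptide. Fluorescence (ex 320, em 430) was read at 0 and 20 min at room temperature. Delta was normalized to 5.8 microM ADEP and DMSO/no-enzyme controls.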
TRPML1 agonist: human mucolipin-1 channel agonism; activation, % (test concentration not listed); Q9GZU1; hit rate 0.12% among 410,000; TRPML1-expressing cells, Ca2+ dye fluorescence, FDSS; host cell line not named in the record; reference of the full effect not given here; AID 624414; in the data active = activation above about 50%; inconclusive = about 30% to 50%; inactive = below about 30%; further: 0% is about no effect; the text of the record puts the active cut at 80%
Target sequence (Q9GZU1 whole entry, looked up): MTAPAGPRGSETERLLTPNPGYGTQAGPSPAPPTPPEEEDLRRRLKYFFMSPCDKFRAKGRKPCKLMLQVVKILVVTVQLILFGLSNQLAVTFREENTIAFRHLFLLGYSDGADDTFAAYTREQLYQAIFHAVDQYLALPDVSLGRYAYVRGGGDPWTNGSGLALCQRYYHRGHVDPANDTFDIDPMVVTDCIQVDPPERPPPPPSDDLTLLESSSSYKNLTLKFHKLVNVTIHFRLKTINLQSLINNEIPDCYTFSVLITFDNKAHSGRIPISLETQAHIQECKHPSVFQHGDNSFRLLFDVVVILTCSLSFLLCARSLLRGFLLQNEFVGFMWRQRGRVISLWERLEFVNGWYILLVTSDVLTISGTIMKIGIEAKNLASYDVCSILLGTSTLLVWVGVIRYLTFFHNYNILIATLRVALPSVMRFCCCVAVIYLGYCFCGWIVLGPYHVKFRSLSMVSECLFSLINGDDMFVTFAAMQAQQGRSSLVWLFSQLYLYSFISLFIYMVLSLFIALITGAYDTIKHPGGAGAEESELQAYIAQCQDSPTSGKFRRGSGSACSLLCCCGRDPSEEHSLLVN
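Agonist activity was taken from a 110 s kinetic Ca2+ dye read on the FDSS after pinning compounds onto TRPML1-DL cells. The cells were seeded at 1,500/well with Tet inducer, incubated about 16 h, then dye-loaded at room temperature.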
TRPML1 blocker: inhibitors of human TRPML1 channel; Q9GZU1; TRPML1-inducible cells, Ca2+ dye fluorescence, FDSS; hits give low values; inhibition of EC80 agonist-evoked calcium signal; activity change, negative = inhibition, % (test concentration not listed); hit rate 0.02% among 390,000; in the data active means activity change below about -50%; inconclusive means about -30% to -50%; inactive means above about -30%;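 further: stimulus is agonist 54-4 at its EC80 concentration; on the % scale 0 is the no-effect control and ±100 the full control effect; compound concentration not given in the record; the text of the record puts the active cut at -80%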
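TRPML1-DL cells, Tet-induced overnight (~16 h, 37 °C) at 1,500 cells/well, were loaded with Ca8 no-wash dye plus quencher for 45-90 min at room temperature. Compounds were pinned during FDSS kinetic reading; agonist 54-4 at EC80 (4 uM final) then added.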
gsp agonist: activates gsp, the McCune-Albright syndrome mutation. hit rate 0.13% among 340,000. gsp mutant cells, cAMP HTRF, 30 min; control for the full effect not named in the record. Potency, µM (doses to about 76.9 µM), inactives show top-dose activation (cAMP increase), hits mostly activators; active = well fitted activation curve with a large enough effect; inconclusive = small, poorly fitted or top-dose-only effect, or another doubt; inactive = no such curve, though single readings can be large or run the other way; cell line not stated here;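 further: phosphodiesterase inhibitor Ro 20-1724 added with compounds to block cAMP breakdown; potency means the concentration at half of the fitted maximal effect; nearly all actives have a fitted effect of over 60% in size; about a fifth of the inactives were tested at one dose only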
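Cells stably selected in G418 were plated at 2000/well, grown 16-24 hr, then given compounds in DMSO with the PDE inhibitor […] (300 uM solution added) for 30 min at 37C; cAMP was read by HTRF.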
gsp antagonist: antagonizes gsp, the McCune-Albright syndrome mutation; Potency, µM (doses to about 76.9 µM), without a hit: top-dose activity change, negative = inhibition, actives largely listed as inhibitors; AID 624288; gsp-mutant cells, cAMP HTRF, 30 min; control for the full effect not named in the record; hit rate 0.4% among 340,000; active = falling curve of any shape with a large fitted effect; inconclusive = falling curve, mostly with a smaller effect; inactive = flat or rising curve; cell line not stated here;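 further: intracellular cAMP measured with PDE inhibitor Ro 20-1724 present during compound exposure; potency means the concentration at half of the fitted maximal effect; on the % scale 0 is the no-effect control and ±100 the full control effect; nearly all actives have a fitted effect of over 65% in size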
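Measurement of cellular cAMP by homogeneous time-resolved fluorescence following a 30 min compound exposure at 37C. The PDE inhibitor […] was present throughout; the assay buffer was DPBS with 0.05% BSA and 0.005% Tween 20.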
Menin-MLL FL inh: menin-MLL binding inhibition, fluorescein peptide | Fluorescence polarization, fluorescein-MLL peptide displacement from menin | FP activity change, % at 61.4 µM | 290,000 tested, under 10 active | AID 1766; inconclusive = falling polarisation curve, or a change in total fluorescence; inactive = total fluorescence flat and polarisation flat or rising; no compound was filed as active; the % refers to the polarisation; negative = inhibition;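 further: % of control where 0% means no effect; inhibitors lower the polarisation; unlabelled MLL peptide was the positive control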
Numbers without * were called inactive; ? = inconclusive; / = not tested or not shown; & = joins results of further samples; [ ] = another dose, or the depositor's remark. Rows were taken by chance; about 2.1% have a hit in one of these screens.

SMILES	ClpP mod	TRPML1 agonist	TRPML1 blocker	gsp agonist	gsp antagonist	Menin-MLL FL inh
CSc1ccc(C(=O)C2CCCN(C(=O)c3cc4cc(F)ccc4[nH]3)C2)cc1 (centres undefined)	/	2.6	15	?	-25%	5.9
COC(=O)Cn1cnc2sc(C)c(S(=O)(=O)N3CCN(c4ccccc4OC)CC3)c2c1=O	-9.9%	0.2	-7	-65%[inhibitor]	10%	-2.0
C=CCN(CC=C)CCCOc1ccc(C)cc1OC	/	-0.4	13	-2%[15.4 µM]	9%	3.3
NC(=O)/C(N=Nc1ccccc1)=N/Nc1ccccc1	-4.1%	-0.4	11	/	4%	/
CCCCNC(=O)c1cc2cccc([N+](=O)[O-])c2[nH]1	/	-1.2	10	-24%[15.4 µM]	2%	-3.4
Cc1ccc(CNC(=O)CCNC(=O)N2CCn3c2nc2ccccc23)cc1	-1.6%	0.7	2	20%	-2%	-4.2
Cc1ccc(Sc2c(C(=O)NCc3ccccc3C)[nH]c3ccccc23)cc1	-4.9%	0.2	4	/	/	/
CCCCC1(C)OC(=O)C(=Cc2ccc(N(CC)CC)cc2)C(=O)O1 (centres undefined)	-3.3%	0.1	-16	2%	-6%	?
O=C(O)CCC(=O)N1CCN(c2nc3ccccc3s2)CC1	-0.3%	-0.3	0	-21%	-1%	2.4
CC(C)C(NC(=O)Cc1ccccc1)C(=O)N1CCN(c2cccc(Cl)c2)CC1 (centres undefined)	1.6%	-0.1	7	10%	28µM*	/
CCCC(=O)N1CCCC(c2nc(-c3cccc(OC)c3)no2)C1 (centres undefined)	1.8%	1.3	57	-2%	-8%	0.8
CCNC(=O)c1ccc(NC(=O)CC2SC(N3CCCC3)=NC2=O)cc1 (centres undefined)	-2.7%	0.0	15	6%	9%	/
Cc1ccc(C)c(S(=O)(=O)c2nnn3c2nc(NCc2cccs2)c2sccc23)c1	28µM*	1.3	30	/	/	/
Cc1cccc([N+](=O)[O-])c1C(=O)O	-2.3%	-0.1	-12	/	-7%	/
O=C(Cn1c(=O)n(CCCC(=O)NC2CCCC2)c(=O)c2ccccc21)NCCC1=CCCCC1	?	0.7	-16	1%	2%	2.0
CCOC(=O)c1c(S(=O)(=O)NCC(=O)Nc2cccc(C)n2)c(C)n(C)c1C	-1.3%	-0.1	-5	3%	5%	/
CCCN(CCC)C(=O)Cn1c(=O)n(CCCCC(=O)NCc2ccco2)c(=O)c2ccccc21	-12%	0.7	40	1%	-10%	-0.2
Cc1noc(C)c1COC(=O)CCC(=O)c1ccc(F)cc1	-0.4%	-0.4	-14	16%[15.4 µM]	0%	1.4
Cc1ccc(C)c(NC(=O)CN(C)C(=O)C2CCN(C(=O)Nc3ccccc3)CC2)c1	/	0.6	-6	17%[15.4 µM]	10%	/
CC(=O)Oc1c(-c2ccco2)oc2ccccc2c1=O	-3.6%	6.7	-16	6%[15.4 µM]	-1%	?
O=C(O)CC1(CC(=O)Nc2cccc(C(F)(F)F)c2)CCCC1	/	0.8	-10	2%[15.4 µM]	-13%	-1.4
O=C(NC1CCCC1)c1ccc(Cl)c(S(=O)(=O)N2CCOCC2)c1	-0.1%	-0.7	8	25%[15.4 µM]	-18%	-4.1
COc1cc(-c2[nH]nc3c2C(c2ccco2)C(C#N)=C(N)O3)cc(OC)c1OC (centres undefined)	-1.7%	0.8	3	-4%	-13%	7.4
O=C(NCc1ccccc1)c1ccc2c(=O)n(CC3CCCO3)c(=S)[nH]c2c1 (centres undefined)	0.9%	0.1	-8	-6%	-10%	0.4
CCSc1nnc2ccc(-c3ccc(OC)c(OC)c3)nn12	/	0.7	-6	-11%[15.4 µM]	25%	0.4
Following part:
SMILES	ClpP mod	TRPML1 agonist	TRPML1 blocker	gsp agonist	gsp antagonist	Menin-MLL FL inh
O=C(CCNS(=O)(=O)c1ccc(Br)s1)NCc1ccc2c(c1)OCO2	/	1.8	-10	-7%	1%	-0.9
CCC(=O)N1CCc2cc(S(=O)(=O)NC(Cc3ccccc3)C(=O)Nc3ccc(Cl)cc3)ccc21 (centres undefined)	-0.8%	2.4	17	/	/	/
Brc1cnc(N2CCCC2)nc1N1CCOCC1	-0.3%	-0.3	-8	1%	2%	2.2
COc1ccc(C(=O)N/C(=C\c2ccc(OC)c(OC)c2)C(=O)N2CCCCC2)cc1	-12%	-0.5	-7	7%[15.4 µM]	-1%	-0.3
Clc1cccc(N/N=C(\Cc2nc3ccccc3[nH]2)c2ccccc2)c1	-4.0%	0.6	?	-81%	-31%	-1.7
Cc1cc(C)cc(OCC(=O)Nc2nc3ccc([N+](=O)[O-])cc3s2)c1	-4.3%	-0.3	-9	11%	-2%	0.7
CCOC(=O)c1cccc(NC(=O)CCSCCc2ccccn2)c1	-2.0%	0.8	5	/	/	/
COc1ccc(N(CC(=O)Nc2cccnc2)S(C)(=O)=O)cc1	/	-1.3	4	-1%[15.4 µM]	15%	3.1
CCC(=O)NC(=S)NNC(=O)c1ccc(O)cc1	0.3%	-0.1	-9	-35%[inhibitor]	1%	-4.3
Cc1cccc(N2CCC(NCc3c(C(=O)N4CCCCC4)nc4c(C)cccn34)CC2)c1	/	-0.6	-16	-14%[15.4 µM]	-11%	-12
COc1ccc(NC(=O)COC(=O)COc2cccc3c2OC(C)(C)C3)cc1	-0.3%	-0.4	-11	10%	-3%	/
Cc1ccc2c(c1)COc1c3ccc(C(=O)NCCO)cc3nn1-2	3.9%	0.5	4	/	-1%	3.6
O=C(c1cc(-c2cccs2)nc2ccccc12)N1CCN(S(=O)(=O)c2cccc(F)c2)CC1	28µM*	2.2	-6	-42%[inhibitor]	-8%	0.4
CCCOC(=O)c1ccc(Nc2c(C(=O)OCC)cnc3c(C)cc(Cl)cc23)cc1	-3.4%	0.0	8	/	/	/
CC(C)N1CC(C(=O)Nc2cc(Cl)cc(Cl)c2)CC1=O (centres undefined)	3.7%	0.2	-3	-19%	12%	0.1
O=[N+]([O-])c1cccc(/C=N/NC2=NCCCCC2)c1	-0.9%	1.3	-4	29%	-2%	1.1
CC(OC(=O)Cn1cnc2ccccc2c1=O)C(=O)N(C)c1ccccc1 (centres undefined)	-2.6%	0.3	31	-11%[15.4 µM]	4%	/
CCC1CCCCN1CCCNC(=O)c1c(C)oc2ncn(CC(C)C)c(=O)c12 (centres undefined)	-4.1%	-0.5	19	/	/	/
O=C(N/N=C/C=C/c1ccco1)c1ccccc1Cl	/	0.2	-2	?	-5%	10
Nc1ccc(Cc2ccc([N+](=O)[O-])cc2)cc1	/	2.2	-7	?	4%	/
CCCCC1CCC(c2nc(-c3cccnc3)no2)CC1 (centres undefined)	-1.4%	-0.2	15	-28%	4%	3.9
CCCn1c(O)c(N=NC(=O)c2ccco2)c2ccccc21	-0.1%	1.3	22	14%	11%	3.6
Cc1cccc(CCNC(=O)C2CCN(S(=O)(=O)c3cccc4nsnc34)CC2)c1	0.5%	-0.5	4	-16%	-3%	-1.4
Cc1ccc(O)c(NC(=O)c2cccc(S(=O)(=O)N3CCCCC3)c2)c1	-2.7%	1.5	6	19%	-10%	10
COc1ccc(/C=N/N2CCN(C)CC2)cc1O	-3.7%	-0.3	-12	2%	3%	0.1
Further structures follow.
SMILES	ClpP mod	TRPML1 agonist	TRPML1 blocker	gsp agonist	gsp antagonist	Menin-MLL FL inh
COc1ccccc1CN(C)c1nnnn1-c1ccccc1	-1.9%	1.5	-15	-4%	-1%	1.0
FC(F)(F)c1cnc(N/N=C/c2ccncc2)c(Cl)c1	-0.6%	0.0	-14	-6%	-3%	1.3
Cc1cccc(C(=O)N=C2SC3CS(=O)(=O)CC3N2c2ccccc2)c1 (centres undefined)	-5.6%	-0.2	-14	-73%[inhibitor]	-26%	/
Cc1ccccc1Cn1cc(/C=N/n2cnnc2)c2ccccc21	1.6%	-0.5	32	29%	10%	-1.2
O=C1c2ccc(-c3nc4ccccc4o3)cc2C(=O)N1Cc1ccccc1	-0.7%	0.9	0	-23%	-4%	/
COCCOC1CCN(C(=O)c2cc(COc3ccc(F)cc3F)on2)CC1	1.1%	1.2	4	9%	-14%	-1.9
CN(C(=O)CSc1nnc(C2CC2)n1C1CC1)C1(C#N)CCCCC1	-1.0%	0.3	7	-5%	3%	/
CC1(C(=O)NS(=O)(=O)C2CC2)CCCN(C(=O)c2cccnc2Oc2ccccc2)C1 (centres undefined)	-1.1%	-0.4	1	/	/	/
CCOC(=O)c1cnc2c(N=Nc3ccccc3)c(N)nn2c1N	-0.6%	-0.7	1	-5%	6%	5.3
CS(=O)(=O)N(CC(=O)O)c1cc(C(F)(F)F)ccc1Cl	2.8%	-1.1	30	/	8%	/
Cc1ccc2c(c1)NCC(C(=O)NCc1ccccc1)O2 (centres undefined)	1.4%	-1.1	-6	1%	4%	2.5
O=C(Cc1ccc(Cl)cc1)N/N=C/c1ccc(O)c(O)c1	-10%	-0.6	-4	3%	/	/
Cc1cc(Nc2cccc(C(F)(F)F)c2)ncn1	-2.2%	-0.4	0	/	/	/
Cc1ccc(NC(=O)COC(=O)C2CC3CCCC(C2)C3=O)c([N+](=O)[O-])c1 (centres undefined)	0.0%	-0.3	5	?	8%	/
Nc1ncnc2c1ncn2[C@@H]1O[C@H](C(=O)N[C@H](CO)Cc2ccc(O)cc2)[C@@H](O)[C@H]1O	0.6%	-0.7	-3	/	/	/
CCCNC(=O)c1cccc(COCC(F)(F)F)c1	4.0%	1.9	-8	2%	11%	/
Cc1cccc(N(CC(=O)NCCSCc2ccco2)S(=O)(=O)c2ccccc2)c1	-2.1%	2.9	8	2%	?	5.6
CC(=O)C1=C(O)C(=O)N(c2nccs2)C1c1ccccc1 (centres undefined)	0.7%	0.1	6	?	-8%	2.3
CSc1nc(SCC(=O)O)c2c3c(sc2n1)COC(C)(C)C3	2.6%	-0.5	-2	?	-2%	-0.5
COC(=O)/C(=C/c1c[nH]c2ccccc12)[N+](=O)[O-]	0.6%	-0.5	5	0%	-9%	7.0
CCOC(=O)c1nc(NCc2cccc(OC)c2)c2ccccc2n1	-1.6%	-1.3	8	-4%	-7%	-0.6
Cn1nnc(NC(=O)c2cccc(F)c2)n1	-0.3%	0.2	2	2%	9%	-0.2
O=S(=O)(/N=C(/Nc1cc(N2CCOCC2)ncn1)c1ccc(F)cc1)c1ccccc1	0.6%&0.5%	-0.7&-0.2	12&0	6%&6%	-4%&-12%	2.9

In the list so far, 2 have a cyano group.
SMILES	ClpP mod	TRPML1 agonist	TRPML1 blocker	gsp agonist	gsp antagonist	Menin-MLL FL inh
COc1cc(-c2[nH]nc3c2C(c2ccco2)C(C#N)=C(N)O3)cc(OC)c1OC (centres undefined)	-1.7%	0.8	3	-4%	-13%	7.4
CN(C(=O)CSc1nnc(C2CC2)n1C1CC1)C1(C#N)CCCCC1	-1.0%	0.3	7	-5%	3%	/
